Compound activity from PubChem.
ALR inh – blocks human ALR sulfhydryl oxidase activity; P55789; purified ALR, DTT oxidation, H2O2 HRP-luminol luminescence; inhibition, % (test concentration not listed); actives 3.8% (n = 290,000);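 active means mean and each replicate at 75% or more; inconclusive means only one of the two met; inactive means neither met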;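 further: stock transfer was 7.5 nL into about 7.5 µL; 0% = neutral wells and 100% = wells with inactivated enzyme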
Target sequence (P55789 whole entry, looked up): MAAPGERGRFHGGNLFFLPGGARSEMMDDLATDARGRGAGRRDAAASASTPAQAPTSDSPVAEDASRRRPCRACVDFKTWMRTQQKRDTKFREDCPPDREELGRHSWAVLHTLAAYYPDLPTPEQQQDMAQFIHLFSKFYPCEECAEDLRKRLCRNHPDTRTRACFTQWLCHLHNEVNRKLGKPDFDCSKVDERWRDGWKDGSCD
HNF4A DNA FP – change in binding of human HNF4 alpha to DNA. P41235. AID 1224865. actives 0.3% (n = 360,000). activity change, % at 10 µM. HNF4a-FITC DNA binding, fluorescence polarization, 1 h; in the data active means activity change above about 30%, passing the limit was not always enough;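 further: controls were the assay level and a saturating level of protein; the project sought stronger binding though the title names inhibitors; some compounds called inactive have numbers as strong as hits; positive values seem to mean higher polarization but the record does not say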
Target sequence (P41235 whole entry, looked up): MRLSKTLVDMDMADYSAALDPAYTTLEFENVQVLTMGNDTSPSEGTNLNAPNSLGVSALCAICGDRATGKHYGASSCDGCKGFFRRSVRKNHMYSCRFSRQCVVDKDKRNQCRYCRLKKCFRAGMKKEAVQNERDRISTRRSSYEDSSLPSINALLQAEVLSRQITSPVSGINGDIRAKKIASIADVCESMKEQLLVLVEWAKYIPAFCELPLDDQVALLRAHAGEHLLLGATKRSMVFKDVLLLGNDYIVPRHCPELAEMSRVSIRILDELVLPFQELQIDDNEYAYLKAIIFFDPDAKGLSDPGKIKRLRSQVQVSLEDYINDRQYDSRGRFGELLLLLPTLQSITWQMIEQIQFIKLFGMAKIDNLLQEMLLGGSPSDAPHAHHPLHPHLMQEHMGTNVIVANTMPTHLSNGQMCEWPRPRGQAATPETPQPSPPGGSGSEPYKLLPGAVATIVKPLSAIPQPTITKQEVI
Vif TR-FRET – HIV-1 Vif–A3G interaction blockers – biochemical, TR-FRET, GST-Vif 1-94, biotin-A3G peptide, dose response retest, primary screen (AID 1117319). TR-FRET GST-Vif / biotin-A3G peptide binding; higher % means a stronger effect; test concentration not given here; strong numbers were not always called active. one-dose inhibition, %; IC50 in µM for titrated hits. actives 0.57% (n = 260,000);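 active means above the screen mean plus three standard deviations and confirmed in dose response; inconclusive means results disagree or hit not tested in dose response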;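 further: Vif residues 1-94 fused to GST binding biotinylated APOBEC3G peptide 110-148; 0% = full assay without inhibitor and 100% = GST in place of GST-Vif; retest series ran down from 100 µM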
Ecoli rRNA inh – inhibits bacterial ribosomal RNA function over humanized ribosomes; E. coli WT GFP vs humanized-ribosome RFP mutants, fluorescence, 24 h; hits give low values; DMSO median 0, no signal -100; GFP signal change (wild-type ribosome), % (no concentration beside the values); actives 1.6% (n = 350,000); AID 720706;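 active means significant combined selectivity score with lowered wild-type GFP, culture density cut under 30%, mutant RFP and density less affected; inactive means any of these conditions unmet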; further: one replicate is shown; some compounds called inactive have numbers as strong as hits
FGF22 binding – shifts melting point of recombinant human FGF22; Q9HCT0; recombinant FGF22 thermal shift, SYPRO orange fluorescence; percent of sucrose octasulfate shift, DMSO zero; calls only at 9.99 µM; actives 1.5% (n = 340,000); AID 651658;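 active means melting point raised past a set limit in the mean and every replicate; inconclusive means no clear call; three in four hits are not shown here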
Target sequence (Q9HCT0 whole entry, looked up): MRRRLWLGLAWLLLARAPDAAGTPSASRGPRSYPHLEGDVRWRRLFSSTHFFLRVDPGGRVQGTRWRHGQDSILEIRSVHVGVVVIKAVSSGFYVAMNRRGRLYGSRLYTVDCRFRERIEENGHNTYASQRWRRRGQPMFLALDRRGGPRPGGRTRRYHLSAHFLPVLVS
E coli growth – E. coli growth inhibition. Escherichia coli growth, OD600, 23 h; hits give low values. OD600 absorbance (no concentration beside the values). actives 0.21% (n = 330,000). AID 1053175;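 active means OD600 absorbance below the run mean of sample wells minus 3.6 SD, in any replicate, cut at about 0.56 in these data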;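 further: stock transfer was 300 nL into about 60 µL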
AF4-AF9 inh – inhibitors of human MLL-AF4/AF9 interaction; P42568; AlphaScreen, biotin-AF4 peptide binding to FLAG-AF9; inhibition, % at 10 µM; actives 0.47% (n = 350,000);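 active means every replicate reaching a set inhibition limit, whatever the replicate mean, cut at about 25% in these data; inconclusive means mean inhibition reaches that limit but some replicates miss it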;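 further: 0% = plate neutral control median and 100% = total signal loss; the record names both 10 and 1 µM as test concentration; the first replicate is given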
Ecoli rRNA inh OD600 – recorded beside Ecoli rRNA inh, whose call it bears; OD600 change, %; measured here: OD600 growth;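 optical density of the mix in the first replicate; 0 = DMSO median and -100 = no signal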
Ecoli rRNA inh RFP – further read-out of Ecoli rRNA inh, marked with its call; RFP signal change, %; measured here: RFP humanized mutant strains;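 first replicate; 0 = DMSO median and -100 = no signal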
Numbers without * were called inactive; i = inactive; ? = inconclusive; . = no result given. Some of the compounds tested; the hit share may differ from the screen's.

SMILES	ALR inh	HNF4A DNA FP	Vif TR-FRET	Ecoli rRNA inh	Ecoli rRNA inh OD600	Ecoli rRNA inh RFP	FGF22 binding	E coli growth	AF4-AF9 inh
COc1cccc(CNC(=O)[C@H]2[C@H](CO)[C@H]3Cn4c(ccc(-c5cncnc5)c4=O)[C@H]3N2C)c1	.	.	.	-0.7	10.7	-0.9	i	.	-1.2
O=C(CNC(=S)N(CCCN1CCOCC1)Cc1cccs1)NC1CC1	-0.6	0.4	.	.	.	.	.	0.662	.
Cc1coc2cc3oc(=O)c(CCC(=O)N4CCC(C(=O)O)(c5ccccc5)CC4)c(C)c3cc12	-0.6	1.6	.	-15.2	-13.4	-12.9	i	0.728	-1.7
CCOC(=O)N1CCN(CC(O)c2c[nH]c3ccccc23)CC1 (centres undefined)	-2.2	0.6	-9.2%	5.6	15.1	-0.3	i	0.69	-5.8
O=C(Cn1c(=O)oc2ccccc21)Nc1n[nH]c(=S)s1	.	2.9	-9.3%	5.3	3.8	-3.7	i	0.681	-30.1
CCN(c1ccccc1)S(=O)(=O)c1ccc(Cl)c(C(=O)N2CCCC2)c1	6.7	-0.1	4.7%	-4.3	-18.5	-1.4	i	0.664	-3.5
CCOC(=O)c1cc(C)n(-c2c(C)n(C)n(-c3ccccc3)c2=O)c1C	-2.5	0.6	3.0%	.	.	.	.	0.706	.
COCCN1CCC(CNCc2c(C(=O)N3CCCCC3)nc3c(C)cccn23)C1 (centres undefined)	.	-1.5	17.0%	12.8	-1.2	6.8	i	0.677	14.7
CC(=O)N(Cc1cccnc1)Cc1cc2ccc(C)cc2[nH]c1=O	-3.8	-3.8	-5.1%	.	.	.	.	0.696	.
Cc1ccc(S(=O)(=O)N(C)C[C@H]2Oc3ccc(NC(=O)NC(C)C)cc3CC(=O)N([C@@H](C)CO)C[C@H]2C)cc1	.	.	.	0.8	0.0	3.0	i	.	-1.2
Cc1ccc(S(=O)(=O)N[C@H]2CC[C@@H](CC(=O)NC3CCCCC3)O[C@H]2CO)cc1	.	.	.	1.0	3.4	-3.6	i	.	-3.1
Cc1c(Cl)cccc1NC(=O)[C@@H](NC(=O)c1ccccc1Cl)C(C)C	2.5	-0.2	.	5.2	10.5	4.3	i	0.713	-3.1

An excerpt from above in order of the ALR inh value, descending:
Molecule,ALR inh,HNF4A DNA FP,Vif TR-FRET,Ecoli rRNA inh,Ecoli rRNA inh OD600,Ecoli rRNA inh RFP,FGF22 binding,AF4-AF9 inh
CCN(c1ccccc1)S(=O)(=O)c1ccc(Cl)c(C(=O)N2CCCC2)c1,6.7,-0.1,4.7%,-4.3,-18.5,-1.4,i,-3.5
Cc1c(Cl)cccc1NC(=O)[C@@H](NC(=O)c1ccccc1Cl)C(C)C,2.5,-0.2,.,5.2,10.5,4.3,i,-3.1
O=C(CNC(=S)N(CCCN1CCOCC1)Cc1cccs1)NC1CC1,-0.6,0.4,.,.,.,.,.,.
CCOC(=O)N1CCN(CC(O)c2c[nH]c3ccccc23)CC1 (centres undefined),-2.2,0.6,-9.2%,5.6,15.1,-0.3,i,-5.8
CCOC(=O)c1cc(C)n(-c2c(C)n(C)n(-c3ccccc3)c2=O)c1C,-2.5,0.6,3.0%,.,.,.,.,.
CC(=O)N(Cc1cccnc1)Cc1cc2ccc(C)cc2[nH]c1=O,-3.8,-3.8,-5.1%,.,.,.,.,.

Next part:
SMILES	ALR inh	HNF4A DNA FP	Vif TR-FRET	Ecoli rRNA inh	Ecoli rRNA inh OD600	Ecoli rRNA inh RFP	FGF22 binding	E coli growth	AF4-AF9 inh
Cc1cc(Br)ccc1SCC(=O)OCC(=O)Nc1ncc(C(F)(F)F)cc1Cl	-10.4	0.3	0.9%	.	.	.	.	0.649	.
O=C(Nc1ccon1)Nc1ccc(Cl)cc1Cl	1.1	8.5	-0.3%	-11.9	-25.2	-0.9	i	0.688	0.2
CC(=O)NC(c1cccc(F)c1)c1nc(-c2cccc(C(F)(F)F)c2)cs1 (centres undefined)	.	-2.1	.	10.3	27.0	1.1	i	.	1.0
CC1CCCC(NC(=O)C2CCC(CNc3c(N4CCCC4)c(=O)c3=O)CC2)C1C (centres undefined)	-14.5	1.3	123.3%	2.2	6.0	-0.6	i	0.664	-7.4
COc1cc(C(=S)N2CCOCC2)cc(OC)c1OC	-9.6	4.3	.	7.5	7.9	1.2	i	0.653	2.2
COC(=O)C[C@H]1C[C@@H]2c3cc(NC(=O)C4CCOCC4)ccc3O[C@@H]2[C@H](CO)O1	.	.	.	3.3	0.6	-1.6	i	.	1.3
NC(=O)c1c(NC(=O)c2cnccn2)sc2c1CCCC2	32.1	2.2	3.6%	2.7	1.1	8.8	i	0.704	-0.1
Cc1cccc2cc(C#N)c(SCC(=O)Nc3ccccc3N3CCOCC3)nc12	1.8	3.5	.	.	.	.	.	0.75	.
Cc1cc(C)nc(-n2ncc(C#N)c2N)n1	-10.6	-0.5	-5.6%	3.2	-0.6	-3.2	i	.	1.1
COC(=O)c1cnn2c3c(c(C)nc12)CCCC3	-3.3	1.8	4.5%	.	.	.	.	0.705	.
O=C(C[C@H]1C=C[C@@H](NC(=O)c2ccncc2)[C@H](CO)O1)NCC1CC1	.	.	.	-2.4	-7.0	-3.7	i	.	-0.5
C=CCn1c(N)c(C(=O)N2CCOCC2)sc1=S	98.6*	4.8	7.1%	.	.	.	.	0.709	.

5 records drawn at random from the list so far, as already listed:
SMILES	ALR inh	HNF4A DNA FP	Vif TR-FRET	Ecoli rRNA inh	Ecoli rRNA inh OD600	Ecoli rRNA inh RFP	FGF22 binding	E coli growth	AF4-AF9 inh
COC(=O)C[C@H]1C[C@@H]2c3cc(NC(=O)C4CCOCC4)ccc3O[C@@H]2[C@H](CO)O1	.	.	.	3.3	0.6	-1.6	i	.	1.3
CC1CCCC(NC(=O)C2CCC(CNc3c(N4CCCC4)c(=O)c3=O)CC2)C1C (centres undefined)	-14.5	1.3	123.3%	2.2	6.0	-0.6	i	0.664	-7.4
Cc1cc(Br)ccc1SCC(=O)OCC(=O)Nc1ncc(C(F)(F)F)cc1Cl	-10.4	0.3	0.9%	.	.	.	.	0.649	.
COC(=O)c1cnn2c3c(c(C)nc12)CCCC3	-3.3	1.8	4.5%	.	.	.	.	0.705	.
O=C(C[C@H]1C=C[C@@H](NC(=O)c2ccncc2)[C@H](CO)O1)NCC1CC1	.	.	.	-2.4	-7.0	-3.7	i	.	-0.5

Later entries
SMILES	ALR inh	HNF4A DNA FP	Vif TR-FRET	Ecoli rRNA inh	Ecoli rRNA inh OD600	Ecoli rRNA inh RFP	FGF22 binding	E coli growth	AF4-AF9 inh
O=C(CN1CCN(c2ccccn2)CC1)Nc1ccccc1C(=O)Nc1ccccc1	-2.3	-6.3	0.3%	1.9	3.8	1.2	i	0.631	-1.4
Cc1ccc(S(=O)(=O)NCCNC(=O)c2nonc2N)cc1	8.7	2.9	20.4%	.	.	.	.	0.694	.
CC(=O)c1cccc(NC(=O)CN(c2ccc(C)cc2)S(=O)(=O)c2cccc3nonc23)c1	-2.5	1.5	6.4%	.	.	.	.	0.733	.
N#Cc1ccc(C2N=C(c3ccccc3)NO2)cc1 (centres undefined)	.	0.1	.	11.9	28.1	8.6	i	0.671	-6.7
C=CCN(CC=C)c1nc2ccccc2nc1C(C#N)C(=O)OCCOC (centres undefined)	31.2	1.6	9.1%	.	.	.	.	0.718	.
CC(C)(C)c1ccc(/C=N/NC(=S)NC2CCCCC2)cc1	.	-1.1	-2.1%	7.5	-4.8	-10.7	i	.	5.4
C/C=N\NC(=O)CNC(=O)CNC(=O)c1ccccc1	5.3	2.6	-1.8%	12.4	11.6	2.3	i	.	-0.7
CC(O)CNCc1ccc(-c2ccccc2)cc1 (centres undefined)	-2.8	-0.3	-1.9%	.	.	.	.	0.653	.
CCc1cc2c(=O)[nH]c(Cc3ccccc3)nc2s1	.	0.6	-1.2%	.	.	.	.	0.736	.
CC(C)c1ccccc1NC(=O)Nc1nnc([C@@H]2C[C@H](O)[C@@H](CO)O2)s1	.	1.7	.	3.7	12.1	-2.6	i	.	-2.1
O=C1CC(c2ccccc2)=NN1c1ccc([N+](=O)[O-])cc1	22.4	-3.0	28.8%	2.3	18.2	-3.2	.	0.666	3.5
COCCN(Cc1nc2ccccc2c(=O)[nH]1)C(=O)COc1ccccc1-c1ccccc1	.	4.1	7.4%	-6.0	-22.9	0.0	i	0.668	-1.3
CC(C)NC(=O)Cn1c(SCC(=O)N2CCCc3ccccc32)nc2ccccc21	-29.4	-1.5	5.0%	.	.	.	.	0.701	.
C[C@H](CO)N1C[C@H](C)[C@H](CN(C)C(=O)Nc2ccc(F)cc2)Oc2ccc(NS(=O)(=O)c3ccccc3)cc2CC1=O	.	.	.	6.2	3.8	1.0	i	.	-1.2
CCc1ccccc1NC(=O)c1ccc(-c2csc(C)n2)cc1	-10.5	-6.0	-1.6%	9.0	13.8	-0.8	i	0.718	0.0
COc1ccc2c3c([nH]c2c1)[C@H](CO)N(C(=O)Nc1c(C)noc1C)CC31CCN(CC2CC2)CC1	.	.	.	6.1	3.0	-2.4	i	.	4.8
CCCNC(=O)c1ccc(S(=O)(=O)c2ccc(OC)cc2)c([N+](=O)[O-])c1	-33.6	-2.9	-0.6%	0.4	5.9	-3.1	i	0.662	2.0
O=C(CN1CCCc2ccccc21)NCc1ccc2c(c1)OCO2	-9.7	2.8	8.3%	.	.	.	.	0.693	.
CCOC(=O)C1CCN(C(=O)Cn2cnc3sc(C)c(S(=O)(=O)N4CCC(C)CC4)c3c2=O)CC1	-3.7	0.4	2.7%	-1.5	-10.9	1.2	i	0.67	2.9
COc1cc(-c2csc(C)n2)ccc1O	96.1*	-2.9	?	.	.	.	.	0.7	.
CCOC(=O)C1=CC[C@@H](c2cc3ccc(OC)cc3n2C)N(S(=O)(=O)c2ccc(C)cc2)[C@H]1C(=O)OCC	-12.1	3.1	.	9.1	1.9	8.0	i	.	0.7
O=C(CCC(=O)c1ccc(F)cc1)Nc1cc(Cl)cc(Cl)c1	-3.0	4.5	-8.1%	.	.	.	.	0.741	.
CCn1c(SCC(=O)O)nnc1C1CCCCC1	2.2	-0.6	3.8%	7.6	3.7	-5.1	i	0.691	2.6
CCOC(=O)C1=C(CC)Nc2ccccc2N=C1NC(=O)CCNC(C)=O	-4.0	-2.8	0.1%	7.0	6.1	1.1	i	0.66	0.1
CCOC(=O)N1CCN(S(=O)(=O)c2c(C)[nH]c(=O)[nH]c2=O)CC1	-2.6	-0.2	1.1%	.	.	.	.	0.774	.
NC(=O)c1ccc(Br)c(S(=O)(=O)N2CCCCC2)c1	-2.7	-0.5	0.9%	-1.7	-4.1	-4.8	i	0.716	6.1
CCOc1ccc(C(=O)Nc2ccccc2-c2ccccc2)cc1Cl	-2.8	11.3	5.0%	.	.	.	.	0.705	.
CN(C)S(=O)(=O)c1ccc(C(=O)NCc2ccccc2)cc1	6.1	0.1	-1.1%	.	.	.	.	0.62	.
O=C(COc1ccccc1)Nc1ccc2oc(=O)ccc2c1	0.7	-3.1	.	11.9	6.8	-0.6	i	0.67	0.0
CCOCCCn1cnc2c(c1=O)c1nc3ccccc3nc1n2-c1ccc(C)cc1	-4.3	3.5	-1.4%	.	.	.	.	0.694	.
Cc1cc(=O)c2cc(Br)ccc2[nH]1	-11.4	4.6	-4.0%	.	.	.	.	0.636	.
COC(=O)c1ccc(COc2ccccc2/C=N/Nc2cccc(C(=O)O)c2)cc1	.	5.2	9.8%	-18.3	-12.9	-1.5	i	.	1.3
